Assay outcomes deposited in PubChem BioAssay by Broad Institute.
Vaccinia stage – blocks a specific stage of Vaccinia orthopoxvirus infection; activity change (mCherry), % (no concentration beside the values); Vaccinia-infected cells, mCherry/Venus stage reporter fluorescence; active compounds read low; some inactives read as strong as hits; 89,000 tested, 0.01% active; AID 1053133;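 active means mCherry past -33% and 40 or more points under the early reporter, replicates agreeing; inconclusive means past -33% without that gap or agreement; tested in A549 cells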;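 further: scaled between vehicle wells and reference inhibitor wells; 23 nL library stock went into each well; one replicate is shown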
Vaccinia stage Venus – further read-out of Vaccinia stage, marked with its call; activity change (Venus), %; measured here: Venus reporter, other viral stage;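 negative = less Venus signal; first of two replicates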
* hit, by the source's call; ? = inconclusive; . = not tested or not shown. An excerpt; rates above refer to the full screens.

Order of values: Vaccinia stage Venus | Vaccinia stage
C/C=C/c1ccc([C@H]2[C@H](CO)N3C(=O)CN(C(=O)c4ccc(F)cc4)C[C@@H]23)cc1
  0 | 15
COCC(=O)Nc1ccc2c(c1)OC[C@@H](C)N(C(=O)CC1CC1)C[C@@H](C)[C@@H](OC)CN(C)C2=O
  4 | -1
C[C@H](CO)N1C[C@H](C)[C@H](CN(C)S(=O)(=O)c2ccccc2)OCCCC[C@H](C)Oc2ccc(NC(=O)Nc3cccc4ccccc34)cc2C1=O
  12 | 9
C[C@H](CO)N1C[C@H](C)[C@H](CN(C)S(=O)(=O)c2ccccc2)OCCCC[C@H](C)Oc2ccc(NC(=O)NC3CCCCC3)cc2C1=O
  -4 | -14
C[C@@H]1CCCCO[C@H](CN(C)S(=O)(=O)c2ccccc2)[C@@H](C)CN([C@@H](C)CO)C(=O)c2cc(NC(=O)CCCN(C)C)ccc2O1
  -12 | 3
C[C@H]1CN([C@@H](C)CO)C(=O)c2ccccc2-c2ccccc2CO[C@H]1CN(C)S(=O)(=O)c1cccc(C#N)c1
  0 | 0
C[C@@H]1CN([C@@H](C)CO)S(=O)(=O)c2ccc(C#CC3CCCCC3)cc2O[C@@H]1CN(C)Cc1cccnc1
  . | ?
C/C=C/c1ccc([C@@H]2[C@@H](CO)N(C(=O)C3CCC3)C23CN(C(=O)NC(C)C)C3)cc1
  13 | 14
C[C@@H]1CCCCO[C@@H](CN(C)S(=O)(=O)c2ccccc2)[C@@H](C)CN([C@@H](C)CO)C(=O)c2cc(NS(=O)(=O)c3ccccc3)ccc2O1
  1 | 10
CN1C(=O)c2cc(NC(=O)c3cscn3)ccc2OC[C@@H]2O[C@H](CC(=O)N3CCCCC3)CC[C@H]21
  3 | 11
O=C(C1CC1)N1C[C@@H]2N[C@H](C1)C2c1ccc(-c2ccccc2F)cc1 (some centres undefined)
  3 | ?
CCCNC(=O)Nc1ccc2c(c1)OC[C@H](C)N(Cc1cncnc1)C[C@H](C)[C@H](OC)CN(C)C2=O
  0 | 6
O=C(C[C@H]1C[C@H]2c3cc(NS(=O)(=O)c4ccc(F)cc4)ccc3O[C@H]2[C@H](CO)O1)NC1CCCC1
  1 | 4
C[C@@H]1CN([C@H](C)CO)C(=O)c2cccc(NC(=O)Nc3ccc(C(F)(F)F)cc3)c2O[C@@H]1CN(C)S(C)(=O)=O
  -6 | -4
COc1ccc(S(=O)(=O)N(C)C[C@H]2OCCCC[C@@H](C)Oc3ccc(NC(=O)Nc4ccc(C(F)(F)F)cc4)cc3C(=O)N([C@H](C)CO)C[C@@H]2C)cc1
  8 | 8
Cc1ccc(S(=O)(=O)Nc2ccc3c(c2)C(=O)N([C@@H](C)CO)C[C@@H](C)[C@H](CN(C)C(=O)CCCN(C)C)OCCCC[C@H](C)O3)cc1
  0 | 14
C[C@@H]1CN([C@H](C)CO)C(=O)c2cc(NC(=O)Cc3cn(C)c4ccccc34)ccc2O[C@H]1CN(C)S(=O)(=O)c1ccc(F)cc1
  -2 | -6
CO[C@H]1CN(C)C(=O)c2ccc(NS(C)(=O)=O)cc2OC[C@@H](C)N(CC2CC2)C[C@@H]1C
  4 | 7
COc1ccc(C(=O)Nc2ccc3c(c2)OC[C@H](C)N(C(C)=O)C[C@H](C)[C@H](OC)CN(C)C3=O)cc1
  5 | 4
COc1cccc(C(=O)Nc2ccc3c(c2)OC[C@H](C)N(C(=O)C2CCCC2)C[C@H](C)[C@H](OC)CN(C)C3=O)c1
  -10 | -22

Next compounds follow:
Order of values: Vaccinia stage Venus | Vaccinia stage
C/C=C/c1ccc([C@H]2[C@@H](CO)N3C(=O)CN(C(=O)c4ccncc4)C[C@@H]23)cc1
  2 | 3
CC(C)CC#Cc1cnc2c(c1)C(=O)N([C@@H](C)CO)C[C@@H](C)[C@@H](CN(C)C(=O)Cc1ccccc1)O2
  -9 | -7
C[C@H](CO)N1C[C@H](C)[C@H](CN(C)S(C)(=O)=O)Oc2ccc(NC(=O)Cc3cn(C)c4ccccc34)cc2C1=O
  0 | 14
O=S(=O)(N[C@@H]1CC[C@H](CCn2cc(Cc3ccccc3)nn2)O[C@@H]1CO)c1ccccc1F
  11 | 12
Cc1ccccc1S(=O)(=O)N1[C@H](C#N)[C@H](c2ccc(-c3ccc(F)cc3)cc2)[C@@H]1CO
  -7 | -12
CO[C@H]1CN(C)C(=O)c2cc(NC(C)=O)ccc2OC[C@H](C)N(Cc2ccccn2)C[C@@H]1C
  -17 | -15
CNC(=O)C[C@@H]1CC[C@@H]2[C@H](COC[C@@H](O)CN2S(=O)(=O)c2ccccc2Cl)O1
  6 | 14
Cc1ccccc1S(=O)(=O)N1C[C@@H](O)COC[C@@H]2O[C@H](CC(=O)N3CCOCC3)CC[C@H]21
  3 | 4
CS(=O)(=O)N1[C@H](C#N)[C@@H](c2ccc(C#CC3CCCCC3)cc2)[C@@H]1CO
  -6 | 4
CN(C)Cc1cn(CC[C@@H]2CC[C@H](NS(=O)(=O)c3ccccc3)[C@H](CO)O2)nn1
  -7 | -4
COc1ccc(NC(=O)Nc2ccc3c(c2)[C@H]2C[C@@H](CC(=O)N4CCCCC4)O[C@H](CO)[C@H]2O3)cc1
  -4 | -3
COc1ccc(C#Cc2ccc([C@@H]3[C@@H](CO)N4C(=O)CN(C(=O)c5ccncc5)C[C@H]34)cc2)cc1
  -5 | -2
CN(C)C(=O)C[C@H]1CC[C@@H]2[C@H](COC[C@@H](O)CN2CC2CCCC2)O1
  2 | 6
CO[C@@H]1CN(C)C(=O)c2cc(NS(=O)(=O)c3ccccc3C)ccc2OC[C@H](C)N(C)C[C@@H]1C
  -2 | -6
CCc1sc(N2[C@H](C#N)[C@H](c3ccccc3-c3cccc(F)c3)[C@H]2CO)nc1C
  5 | 2
CO[C@@H]1CN(C)C(=O)c2ccc(NC(=O)C3CC3)cc2OC[C@@H](C)N(CCc2ccccc2)C[C@@H]1C
  -8 | -10
CCCNC(=O)N1C[C@@H](O)COC[C@@H]2O[C@H](CC(=O)NCc3ccc(Cl)c(Cl)c3)CC[C@H]21
  4 | 10
COc1ccc(NC(=O)Nc2ccc3c(c2)C(=O)N([C@H](C)CO)C[C@H](C)[C@@H](CN(C)C(=O)Nc2c(C)noc2C)O3)cc1
  8 | 15
COCC#Cc1ccc2c(c1)O[C@H](CN(C)S(=O)(=O)c1ccc(OC)cc1)[C@H](C)CN([C@H](C)CO)S2(=O)=O
  -31 | -32
CCCNC(=O)Nc1ccc2c(c1)C(=O)N(C)C[C@H](OC)[C@H](C)CN[C@@H](C)CO2
  14 | 2

Continued.
Order of values: Vaccinia stage Venus | Vaccinia stage
CN1CCN(C(=O)C[C@H]2CC[C@H]3[C@@H](COc4ccc(NC(=O)C5CCOCC5)cc4C(=O)N3C)O2)CC1
  1 | 2
O=C([C@H]1[C@H](CO)[C@H]2Cn3c(ccc(-c4cncnc4)c3=O)[C@H]2N1C(=O)C1CCC1)N1CCCCC1
  4 | 6
COC(=O)[C@@]1(CCC(=O)OC(C)(C)C)N=C(c2ccc(OCCCO)cc2)O[C@H]1c1ccccc1
  . | ?
COc1ccccc1NC(=O)N1CCCCN2[C@H](CO)[C@H](c3ccc(-c4cccc(C)c4)cc3)[C@H]2C1
  . | ?
C[C@@H]1CN([C@@H](C)CO)C(=O)c2cc(NC(=O)c3ccncc3)ccc2O[C@@H](C)CCCCO[C@H]1CN(C)C(=O)c1ccncc1
  2 | 21
CCNC(=O)C[C@H]1C=C[C@@H](NS(=O)(=O)c2ccc(C)cc2)[C@H](CO)O1
  12 | 4
COCCNC(=O)C[C@H]1C[C@H]2c3cc(NC(=O)COC)ccc3O[C@H]2[C@H](CO)O1
  7 | 18
O=C(N[C@@H]1CC[C@@H](CCn2cc(C3(O)CCCC3)nn2)O[C@H]1CO)C1CC1
  5 | 5
CC(C)NC(=O)N[C@@H]1CC[C@@H](CCn2cc(-c3ccc(F)cc3)nn2)O[C@@H]1CO
  0 | 4
CN1[C@@H]2c3ccc(-c4cccnc4)c(=O)n3C[C@@H]2[C@@H](CO)[C@@H]1C(=O)NC1Cc2ccccc2C1
  17 | 8
C[C@H](CO)N1C[C@H](C)[C@H](CN(C)CC2CCCCC2)Oc2c(NC(=O)C3CC3)cccc2C1=O
  7 | 8
C[C@@H]1CN([C@H](C)CO)C(=O)c2cc(NC(=O)c3ccncc3)ccc2O[C@H]1CN(C)Cc1ccncc1
  -2 | -5
CC(C)NC(=O)Nc1ccc2c(c1)C(=O)N([C@H](C)CO)C[C@H](C)[C@H](CN(C)S(=O)(=O)c1ccccc1)OCCCC[C@H](C)O2
  -5 | 1
COc1ccc(CN(C)C[C@H]2Oc3ccc(NC(=O)Nc4ccccc4)cc3CC(=O)N([C@H](C)CO)C[C@@H]2C)cc1
  -2 | 6
C[C@@H]1CN([C@@H](C)CO)S(=O)(=O)c2ccc(C#CC(C)(C)O)cc2O[C@H]1CN(C)Cc1ccc(F)cc1
  . | ?
CC(=O)N1CC2(C1)[C@@H](c1ccccc1)[C@H](CO)N2Cc1cccc(Cl)c1
  10 | 8
O=C(C[C@@H]1CC[C@H]2[C@@H](COC[C@H](O)CN2S(=O)(=O)c2ccc(F)cc2)O1)NCc1ccc(Cl)c(Cl)c1
  . | ?
C[C@@H]1CN([C@H](C)CO)C(=O)c2cc(C#CCC3CCCC3)cnc2O[C@H]1CN(C)CC1CCOCC1
  . | ?
CC(=O)N1CC[C@@H]2[C@H](CO)Nc3ccc(-c4ccc(F)cc4)cc3[C@@H]21
  -14 | -24
CCCNC(=O)C[C@H]1CC[C@@H]2[C@H](COc3ccc(NC(=O)c4ccc(Cl)cc4)cc3C(=O)N2C)O1
  -4 | -5

The results go on.
Order of values: Vaccinia stage Venus | Vaccinia stage
CCCN(C)C[C@H]1OCCCC[C@@H](C)Oc2ccc(NS(=O)(=O)c3ccccc3)cc2C(=O)N([C@@H](C)CO)C[C@H]1C
  -1 | -5
CN1CCCCN2[C@H](CO)[C@@H](c3ccc(C#CC4(O)CCCC4)cc3)[C@H]2C1
  1 | 11
COc1ccc(NC(=O)Nc2ccc3c(c2)C(=O)N([C@@H](C)CO)C[C@H](C)[C@H](CN(C)S(=O)(=O)c2ccccc2)OCCCC[C@@H](C)O3)cc1
  -2 | 0
CCCN(C)C[C@@H]1Oc2cc(C#Cc3ccc(OC)cc3)ccc2S(=O)(=O)N([C@@H](C)CO)C[C@@H]1C
  -1 | -6
CCCNC(=O)C[C@H]1CC[C@H]2[C@@H](COc3ccc(NC(=O)c4ccc5c(c4)OCO5)cc3C(=O)N2C)O1
  3 | -1
CC(C)NC(=O)Nc1ccc2c(c1)C(=O)N([C@@H](C)CO)C[C@@H](C)[C@@H](CN(C)C(=O)CCC(F)(F)F)OCCCC[C@H](C)O2
  3 | 7
COc1ccc(S(=O)(=O)N(C)C[C@H]2OCCCC[C@H](C)Oc3ccc(NC(=O)c4ccccc4)cc3C(=O)N([C@@H](C)CO)C[C@H]2C)cc1
  -13 | -11
COCC(=O)N1CC(=O)N2[C@@H](CO)[C@H](c3ccc(-c4ccccc4F)cc3)[C@@H]2C1
  9 | 7
O=C(C[C@H]1CC[C@@H](NC(=O)Nc2ccccc2F)[C@@H](CO)O1)NCc1ccc(-c2ccccc2)cc1
  . | ?
CN(C)CC(=O)N[C@@H]1CC[C@@H](CCn2cc(C3CC3)nn2)O[C@H]1CO
  -1 | 6
CC(C)NC(=O)Nc1ccc2c(c1)C(=O)N(C)[C@@H]1CC[C@H](CC(=O)Nc3ccccc3)O[C@@H]1CO2
  5 | 1
COCC(=O)N1CCC2(CC1)CN(Cc1nccs1)[C@H](CO)c1c2c2ccc(OC)cc2n1C
  -2 | 13
C[C@H]1CN([C@@H](C)CO)C(=O)c2cc(NS(=O)(=O)c3ccc(Cl)cc3)ccc2O[C@H]1CN(C)C(=O)Nc1cccc2ccccc12
  16 | 18
CCCNC(=O)Nc1ccc2c(c1)C(=O)N(C)C[C@@H](OC)[C@@H](C)CN(Cc1cccnc1)[C@@H](C)CO2
  -1 | 0
COc1ccc(S(=O)(=O)N(C)C[C@@H]2OCCCC[C@@H](C)Oc3ccc(NS(=O)(=O)c4ccc(C)cc4)cc3C(=O)N([C@@H](C)CO)C[C@@H]2C)cc1
  -9 | -8
CCC(=O)Nc1ccc2c(c1)C(=O)N(C)C[C@@H](OC)[C@@H](C)CN(CC1CC1)[C@@H](C)CO2
  0 | 5
CC(=O)N1C[C@H]2[C@@H](c3ccccc31)[C@@H](CO)N2C(=O)Nc1ccc(F)cc1
  10 | 10
COc1ccc(NC(=O)Nc2ccc3c(c2)C(=O)N([C@H](C)CO)C[C@H](C)[C@@H](CN(C)C(=O)Nc2ccc(F)cc2)OCCCC[C@H](C)O3)cc1
  -6 | -7
CC(C)C#Cc1cnc2c(c1)C(=O)N([C@H](C)CO)C[C@H](C)[C@H](CN(C)C(=O)c1cnccn1)O2
  0 | 22
